Cruzain inh noDet: blocks cruzain activity in detergent-free assay | purified cruzain, Z-FR-AMC fluorescence, no detergent | Potency, µM, for the others: max response, negative = inhibition, actives largely listed as inhibitors | P25779 | 200,000 tested, 2.3% active; active means well fitted curve in the direction sought with a large enough effect; inconclusive means small, poorly fitted or top-dose-only effect, or another doubt; inactive means no such curve, though single readings can be large; an effect the other way counts as inactive or inconclusive;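 further: plate controls were enzyme without inhibitor for no effect and buffer without enzyme for full effect; nearly all actives have a fitted effect of over 40% in size; top concentration of the series not given in the record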
Target sequence (P25779 123-467 limits assumed): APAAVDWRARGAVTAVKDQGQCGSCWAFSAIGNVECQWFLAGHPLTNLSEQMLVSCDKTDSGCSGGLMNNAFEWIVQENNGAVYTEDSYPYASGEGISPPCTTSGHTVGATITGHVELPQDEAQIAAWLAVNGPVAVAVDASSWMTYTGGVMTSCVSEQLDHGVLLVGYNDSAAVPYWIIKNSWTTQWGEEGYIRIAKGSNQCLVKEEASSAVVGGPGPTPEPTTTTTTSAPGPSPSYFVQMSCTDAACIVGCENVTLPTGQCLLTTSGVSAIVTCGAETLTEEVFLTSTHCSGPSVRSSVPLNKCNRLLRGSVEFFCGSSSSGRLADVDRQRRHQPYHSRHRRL
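Detergent-free condition (0.00005% Triton X-100) in acetate buffer pH 5.5 with DTT. 1.5 nM enzyme and compound were pre-mixed 15 min, then 2 uM Z-FR-AMC substrate added; reaction progress from fluorescence change between first and third reads (60 s).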
SARS PLP yeast: SARS-CoV PLP inhibition in yeast. Potency, µM (series often up to 32.9 µM), for the others: top-dose activity, positive = growth rescue. 330,000 tested, 0.19% active. S. cerevisiae expressing SARS-CoV PLpro, growth rescue; control for the full effect not named in the record; further: 0% is about no effect; nearly all actives have a fitted effect of over 55% in size; growth read by luminescence after 48 h
NS1 inh: influenza NS1 inhibition; S. cerevisiae slowed by influenza A NS1, growth recovery by OD600; Potency, µM (highest dose often 46.1 µM), without a hit: at the top dose activity, positive = more growth; 270,000 tested, 0.4% active; AID 2326; further: actives are rising curves; nearly all actives have a fitted effect of over 50% in size
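OD600 was taken as the measure of yeast growth restored by compound in an NS1-expressing S. cerevisiae strain. Cells had been washed out of glucose medium and diluted 1:100 into galactose -URA medium, pH 6.0.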
Cruzain Triton: blocks cruzain activity in presence of Triton detergent; P25779; purified cruzain, Z-FR-AMC fluorescence, 0.01% Triton; Potency, µM, for the others: max response, negative = inhibition, actives largely listed as inhibitors; 200,000 tested, 0.43% active; AID 1478; active means well fitted curve in the direction sought with a large enough effect; inconclusive means small, poorly fitted or top-dose-only effect, or another doubt; inactive means no such curve, though single readings can be large; an effect the other way counts as inactive or inconclusive;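 further: plate controls were neutral wells for no effect and buffer without enzyme for full effect; nearly all actives have a fitted effect of over 40% in size; top concentration of the series not given in the record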
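Detergent-containing run (0.01% Triton X-100) in acetate buffer pH 5.5 with 5 mM DTT: enzyme at 1.5 nM final, 15 min compound preincubation at room temperature, then 2 uM Z-FR-AMC substrate. Activity taken as 60 s fluorescence increase at 360/450 nm.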
RE007 growth inh: less growth of the S. pombe RE007 Vpr strain; S. pombe RE007 Vpr strain, BacTiter-Glo ATP luminescence, 24 h; control for the full effect not named in the record; Potency, µM (titrated, usually from 92.2 µM), for inactives: at the top dose activity change, negative = less growth; 360,000 tested, 0.21% active; active = well fitted falling curve with a large enough effect; inconclusive = small, poorly fitted or top-dose-only effect; inactive = no such curve, though single readings can be large or run the other way;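 further: on the % scale 0 is the no-effect control and ±100 the full control effect; nearly all actives have a fitted effect of over 50% in size; the assay follows cell death caused by Vpr and the record does not say whether a fall means rescue or toxicity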
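Fission yeast RE007 carrying one integrated HIV-1 vpr copy, seeded at OD 0.01 in PMG+AL medium with 23 nL pinned compound. Grown 24 h at 30 degrees; viability read by BacTiter-Glo luminescence after 5 min.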
LASV entry inh: inhibitors of Lassa virus binding or cell entry. Lassa virus pseudotype entry inhibition, cell reporter; control for the full effect not named in the record. Potency, µM (doses to about 37.9 µM), inactives show top-dose activity change, negative = inhibition, hits mostly inhibitors. 300,000 tested, 1.2% active. AID 540256; active means well fitted inhibition curve with a large enough effect; inconclusive means small, poorly fitted or top-dose-only effect, or effect the other way; inactive means flat fitted curve, though single readings scatter; tested in HEK293 cells; further: on the % scale 0 is the no-effect control and ±100 the full control effect; nearly all actives have a fitted effect of over 50% in size; luciferase read-out
2A StopGo: FMDV 2A StopGo reporter, luciferase signal; human cells with a luciferase reporter of 2A StopGo recoding; control for the full effect not named in the record; Potency, µM (top dose mostly 57.9 µM), inactives show at the top dose signal change, negative = less light; 410,000 tested, 1.2% active; active = well fitted falling curve with a large enough effect; inconclusive = small, poorly fitted or top-dose-only effect; inactive = no such curve, though single readings can be large or run the other way; tested in HEK293T cells; further: on the % scale 0 is the no-effect control and ±100 the full control effect; nearly all actives have a fitted effect of over 45% in size; luciferase light after 4 h
MARV entry inh: inhibitors of Marburg virus binding or cell entry; Marburg virus pseudotyped entry inhibition, cell reporter; control for the full effect not named in the record; about a third of the inactives were read at about 46 µM; Potency, µM (doses to about 37.8 µM), inactives show at the highest dose activity change, negative = inhibition, actives largely listed as inhibitors; 300,000 tested, 1.8% active; AID 540276; active = well fitted inhibition curve with a large enough effect; inconclusive = small, poorly fitted or top-dose-only effect, or effect the other way; inactive = flat fitted curve, though single readings scatter; tested in HEK293 cells; about a fifth of its hits are not listed in these tables; further: on the % scale 0 is the no-effect control and ±100 the full control effect; luciferase read-out
Numbers without * were called inactive; ? = inconclusive; . = no result given; [ ] = remark or other dose. Unless noted, the call rests on the fitted dose curve; in most records, active means well fitted rising curve with a large enough effect; inconclusive means small, poorly fitted or top-dose-only effect; inactive means no such curve, though single readings can be large or run the other way. Potency means the concentration at half of the fitted maximal effect.

canonical_smiles	2A StopGo	NS1 inh	Cruzain Triton	LASV entry inh	Cruzain inh noDet	SARS PLP yeast	RE007 growth inh	MARV entry inh
CN(C)C(=O)/C=C\c1cn(-c2ccccc2)nc1-c1ccc2c(c1)OCCO2	-6%	5%	.	?	.	-1%	4%	?
CN(C)c1nc(-c2cn(CCC#N)c3ccccc23)cs1	36%[activator]	15%	.	-18%	.	-2%	-9%	?
Cc1ccc(N2CCN(C(=O)c3ccccc3NC(=O)/C=C\C(=O)O)CC2)cc1	-2%	7%	3.6%	5%	7%	-4%	?	10%
O=C(Cn1cc(Cl)c([N+](=O)[O-])n1)NCCC1=CCCCC1	0%	4%	.	-11%[46.1 µM]	.	2%	11%	18%[46.1 µM]
C=C(C)C(=O)N1CC2(CC(c3cccc(NC(=O)CC)c3)=NO2)C[C@H]1C(N)=O (stereo partly drawn)	-1%	?	.	.	.	0%	-6%	.
Cc1ccc(-n2c(=O)c3oc4ccccc4c3n(Cc3ccccc3)c2=O)cc1C	?	.	-1.4%	-27%[46.1 µM]	-8%	.	.	.
Clc1cccc(CN2CCCCC2c2cccnc2)c1 (stereo not drawn)	.	8%	2.1%	-10%	-9%	5%	-6%	-24%
Cc1cc(Cl)ccc1OCC(=O)OCC(=O)NC1CCCC1	-9%	.	.	-11%	.	-10%	13%	0%
COc1ccc(CNC(=O)c2cc(Nc3ccc(C)cc3C)nc3ccccc23)cc1	-1%	.	-10%	12%[46.1 µM]	9%	.	.	-24%[46.1 µM]
c1ccc(Oc2cccc(CN3CCCCC3)c2)cc1	.	-6%	3.5%	-16%	-6%	-1%	2%	?
Cc1noc2ncnc(SCc3ccc(C(F)(F)F)cc3)c12	?	-58%	.	-2%	.	0%	-3%	?
COc1ccc(N2CC(C(=O)Nc3ccc4c(c3)OCCO4)CC2=O)cc1 (stereo not drawn)	-1%	3%	.	8%	.	-4%	-16%	1%
COC(=O)c1ccccc1NC(=O)CN1C(=O)COc2ccc(Cl)cc21	-25%	.	-6.0%	-12%[46.1 µM]	6%	.	.	-20%[46.1 µM]
COc1ccc(-c2noc(CN3C(=O)c4ccccc4C3=O)n2)cc1	44%[activator]	-22%	-0.7%	3%	-1%	-11%	-7%	25%
O=C(COC(=O)c1ccc(F)cc1)Nc1nc2ccc([N+](=O)[O-])cc2s1	12%	3%	.	7%	.	0%	-1%	1%
Cc1cc(/C=C2\SC(=S)NC2=O)cc(C)c1O	30%[activator]	7%	.	.	.	-1%	5%	.
Cc1cc(NC(=O)NC2CCCN2S(=O)(=O)c2ccc(Cl)cc2)no1 (stereo not drawn)	-21%	-4%	-0.3%	5%	-1%	12%	3%	-10%
Cc1cccc(Nc2nc3c(S(=O)(=O)c4ccc(Br)cc4)nnn3c3ccsc23)c1C	-14%	.	0.0%	-24%[46.1 µM]	1%	.	.	.
CN(Cc1cnc2nc(N)nc(N)c2n1)c1ccc(C(=O)NC(CCC(=O)O)C(=O)O)c2ccccc12 (stereo not drawn)	-18%	.	.	.	.	.	7%	.
O=C(O)c1cccc(NC(=O)N2C[C@H]3C[C@@H](C2)c2cccc(=O)n2C3)c1	-1%	6%	.	.	.	-5%	-9%	.
CC(=O)N1N=C(c2ccccc2)CC1c1cccs1 (stereo not drawn)	0%	-3%	.	0%[46.1 µM]	.	-2%	-8%	30%[46.1 µM]
C/C(=N/NC(=O)CN1CCN(Cc2ccccc2)CC1)c1ccc([N+](=O)[O-])cc1	-18%	-4%	.	?	.	1%	2%	?
CCOC(=O)n1cnc2nc(N)nc(SC)c21	10%	.	.	-3%	.	.	-4%	?
CSc1ccc(CN(C)C(=O)CNC(=O)CNS(=O)(=O)c2ccc(C)c(C)c2)cc1	-1%	-10%	.	-14%[46.1 µM]	.	-2%	-9%	?
Cc1c(C(=O)OC(C)C)nnn1-c1nonc1N	8%	9%	-2.1%	11%	8%	-1%	4%	12%
C=CCn1c(O)c(C(CC)=NCCc2c[nH]c3ccccc23)c(=O)[nH]c1=O	0%	-7%	.	?	.	-1%	1%	?
O=[N+]([O-])c1cc2c(c(CSc3nnnn3-c3ccc(O)cc3)c1)OCOC2	-15%	8%	-6.0%	?	?	6%	1%	5%
COc1cccc(-c2nc(-c3ccccc3)[nH]c(=O)c2C#N)c1	-12%	15%	5.3%	-1%	-8%	4%	15%	28%
OCC1(CCOc2ccccc2)CCN(CC2=Cc3cc(Cl)ccc3OC2)CC1	?	-1%	.	4%[46.1 µM]	.	1%	6%	?
CC1C/C(=N/NC(=O)c2cccs2)CC(C)(C)C1 (stereo not drawn)	78%[activator]	-5%	-1.0%	?	9%	1%	-5%	?
CN(C(=O)COC(=O)c1cc2ccccc2cc1O)c1c(N)n(Cc2ccccc2)c(=O)[nH]c1=O	-15%	.	.	-22%	.	1%	4%	10%[46.1 µM]
CCc1cccc(C)c1NC(=O)CCCN1C(=O)C(c2ccccc2)Oc2cccnc21 (stereo not drawn)	?	.	-0.2%	-4%[46.1 µM]	15%	.	.	.
O=C(NC1CC1)c1cc(Cl)ccc1[N+](=O)[O-]	-5%	-4%	2.4%	-3%	11%	0%	-13%	?
c1ccc(N2CCN(c3nc4cc5c(cc4s3)OCCO5)CC2)cc1	7%	2%	8.3%	-1%	?	-7%	10%	23%
O=C(CSc1nc2cc3c(cc2c(=O)n1CCC1=CCCCC1)OCO3)NCc1ccco1	-21%	-9%	2.4%	13%	-11%	-3%	18%	-16%
O=C(NCCn1c(C(F)(F)F)nc2cc(C(F)(F)F)ccc21)[C@H]1CCCN1c1nc(CN2CCCCC2)cs1	-2%	9%	.	.	.	-4%	-6%	.
Cc1ccc(-c2csc3ncnc(-n4nc(C)cc4N)c23)cc1	-8%	?	-2.0%	-2%	-7%	11%	15%	1%
CCOC(=O)C1CCN(C(=O)c2ccccc2NC(C)=O)CC1	-7%	13%	0.5%	?	-10%	4%	4%	2%
CC(C)(C)C(=O)CC1(O)C(=O)N(Cc2ccc(Cl)cc2)c2ccccc21 (stereo not drawn)	?	3%	-3.0%	10%	-2%	-4%	13%	3%
CC(=O)N1CCc2cc(CNC(=O)c3ccccc3Br)ccc21	24%	.	-2.5%	23%[46.1 µM]	-11%	.	.	.
COc1cccc(OC)c1C(=O)Oc1ccc2c(c1)O/C(=C\c1ccncc1)C2=O	?	21%	1.1%	5%	22%	0%	-8%	7.1µM*
CCOCCCn1c(=S)[nH]c2cc(C(=O)N3CCN(c4ccccc4)CC3)ccc2c1=O	?	6%	.	24%[46.1 µM]	.	0%	6%	8%[46.1 µM]
COC(=O)c1c(C)[nH]c(C(C)=O)c1C	-18%	-4%	-0.9%	21%	4%	-6%	-5%	?
CC(C)c1cnc2c(c1SCC(=O)Nc1cccc(F)c1)c(=O)n(C)c(=O)n2C	41%[activator]	.	-0.9%	12%[46.1 µM]	-3%	.	.	.
Cc1ccccc1NCN1C(=O)C2CCC(C)(C1=O)C2(C)C (stereo not drawn)	-10%	-1%	.	.	.	1%	2%	.
COc1ccccc1NC(=O)c1ccc(S(=O)(=O)N2CCCC2)cc1	-17%	-14%	-0.8%	.	-1%	-2%	5%	.
CCc1[nH]nc2c1C(c1ccc(Br)s1)C(C#N)=C(N)O2 (stereo not drawn)	?	-21%	-8.4%	?	-3%	-20%	5%	?
CCOc1ccc(-c2cc(C(=O)NCCc3ccc(OC)c(OC)c3)[nH]n2)cc1	-25%	.	-4.1%	-18%[46.1 µM]	30%	.	.	.
COc1ccc(CNC(=O)c2cnc3sc4cc(OC)ccc4n3c2=O)cc1	-13%	.	-2.4%	.	1%	.	.	13%[46.1 µM]
NC(=O)N/N=C/c1ccccc1OCC(=O)NCc1ccccc1	-24%	-8%	-1.9%	1%	-6%	-25%	-4%	?
CCOc1ccc(N2CC(C(=O)Nc3ccc(OC)c(S(=O)(=O)N4CCCCC4)c3)CC2=O)cc1 (stereo not drawn)	-4%	.	.	-20%	.	4%	1%	?
CC(C)C(=O)N1CCN(c2ccccc2NC(=O)c2cccc3ccccc23)CC1	?	-6%	.	?	.	-8%	-20%	?
COc1ccc(C(=O)Nc2cc3c(oc2=O)CCCC3=O)cc1	18%	1%	.	?	.	3%	7%	4%[46.1 µM]
N#Cc1ccccc1CSc1nnc(Cc2ccccc2)o1	37%[activator]	-4%	.	0%[46.1 µM]	.	0%	-8%	27%[46.1 µM]
CCOc1ccc(CCNC(=O)CCNS(=O)(=O)c2ccc(Br)cc2)cc1OCC	-11%	-6%	.	.	.	3%	0%	.
CN(CC(=O)Nc1ccccc1Cl)C(=O)c1ccccc1Sc1ccccc1C#N	15%	.	.	-6%	.	0%	-12%	-3%
Cc1ccc2c(CN(C)Cc3ccc(Cl)cc3)cc(=O)oc2c1	3%	-62%	.	-3%	.	-41%	11%	?
Cc1ccc(N(CC(=O)Nc2c(C)n(C)n(-c3ccccc3)c2=O)S(C)(=O)=O)c(C)c1	2%	-1%	.	4%	.	0%	-1%	4%
CCOC(=O)CCC(NC(=O)CC(=O)NC(CCC(=O)OCC)C(=O)OCC)C(=O)OCC (stereo not drawn)	5%	3%	.	.	.	1%	-17%	.
CN(C(=S)Nc1ccc(F)cc1)C(c1ccccc1)c1ccccc1	4%	1%	.	.	.	-3%	2%	.
CSc1ncc(Cl)c(C(=O)N(Cc2ccc(C(C)C)cc2)C2CCS(=O)(=O)C2)n1 (stereo not drawn)	30%	.	-6.5%	?	-1%	.	.	?
COc1cccc(C(=O)OCCN(C)C(C)(C)C)c1	.	3%	6.2%	.	0%	9%	.	-2%
